# Bead autofluor – counter-screen for toxin protease inhibitors: compound fluorescence | compound autofluorescence counterscreen, microsphere flow cytometry; hits give high values | fluorescence intensity (test concentration not listed) | hit rate 3.1% among 360,000;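 active = at least 3 SD above the mean of all compounds, about 16000 in these data; inconclusive = too few beads counted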;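 note: 100 nL of 1 mM stock went into each well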
# ugtP null kill – growth inhibition of ugtP-null S. aureus, primary screen, RN4220 ugtP deletion, OD600; 16 h; some inactives read as strong as hits; growth inhibition, % (no concentration beside the values); hit rate 0.54% among 330,000; AID 1259309, 2017;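 active = z-score under -3 and OD600 up to 0.15 on both plates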;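 note: plate controls were untreated wells for no effect and antibiotic for full effect; wells of about 80 µL received 100 nL stock; the first replicate is given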
# Mtb hypoxia inh – PubChem AID 1159583; M. tuberculosis hypoxia-regulated fluorescent reporter, fluorescence; fluorescence inhibition, % (no concentration beside the values); hit rate 0.1% among 300,000;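 active = 35 to 45% if threefold the growth effect, above 45% if 1.5-fold the growth effect; inactive = the rest, general growth blockers included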;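 note: wells of about 50 µL received 100 nL stock; 0% = vehicle wells and 100% = reference inhibitor wells; whole bacteria with a GFP reporter of the hypoxia response; strong numbers were not always called active; many hits fall short of the cut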
# Sa RN4220 lethal – growth inhibition of S. aureus RN4220, primary screen, OD600. 16 h. inhibition, % (test concentration not listed). hit rate 0.33% among 330,000. AID 1259311, 2017;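 active = z-score of -3 or lower and OD600 up to 0.18 on both plates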;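 note: plate controls were untreated cells for no effect and reference antibiotic for full effect; stock transfer was 100 nL into about 80 µL; one replicate is shown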
# BJeLR viability – MLPCN primary cell-based screen for lethality selective to Ras in HRASV12 cells; BJeLR (HRASV12) viability, CellTiter-Glo ATP luminescence, 48 h; reference of the scale not given here; hit rate 0.17% among 300,000; inhibition, % (test concentration not listed); AID 1554, 2009;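 active = replicate mean above 50%; inconclusive = above 50% but judged a plate artefact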;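 note: 50 nL library stock added to about 25 µL; numbers are from one replicate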
# PrP 5UTR inh – inhibition of PrP 5' UTR reporter expression; cell-based PrP 5' UTR mRNA reporter, plate reader; inhibition, % (test concentration not listed); hit rate 0.35% among 340,000;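 active = every replicate at 50% or more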;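 note: 0 = median of the neutral control wells; tested in H4 reporter cells; numbers are from one replicate; inactives centre near -14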
# Mtb hypoxia inh growth – also measured in Mtb hypoxia inh; calls as there; growth inhibition, %; measured here: M. tuberculosis growth (absorbance);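 0% = vehicle and 100% = reference antibiotic; read after six days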
# * marks the source's active call; other numbers are inactive results; ? = inconclusive; . = not tested or not shown.
SMILES,Bead autofluor,ugtP null kill,Mtb hypoxia inh,Mtb hypoxia inh growth,Sa RN4220 lethal,BJeLR viability,PrP 5UTR inh
C=CC[n+]1cccc(-c2cc3ccc(C)cc3[nH]2)c1,3594,10,4,5,-2.8,4,-15
Cc1c(CCC(=O)N2CCC(C(=O)NCCCCCC(=O)O)CC2)c(=O)oc2cc3oc4c(c3cc12)CCCC4,5171,4,4,5,3.0,-1,-9
CCn1cc(C(=O)NCCCOC(C)C)c2cc(OC)c(OC)cc2c1=O,2732,4,.,.,2.8,-5,-16
COc1ccccc1C1CC(c2ccccc2)=NN1C(=O)c1ccccc1 (configuration not stated),3761,-15,-9,5,-2.8,-3,-3
COCc1cc(Sc2ccc(Cl)cc2Cl)nc(-c2ccccc2)n1,4983,67,.,.,-17,0,-25
CC(=NNC(=O)CNC(=O)Cc1ccc(Cl)cc1)c1ccco1,.,15,-6,-13,1.7,.,.
Cc1ccc(S(=O)(=O)NNC(=O)c2ccc3ccccc3n2)cc1,3340,8,2,2,8.4,0,-67
Cc1ccc2nc(SCC(=O)N3CCN(c4ccccc4)CC3)nc(=O)n2c1,6398,5,5,14,1.1,-4,-6
CCN(CC)P(=S)(c1c(C)nc2ccccn12)c1c(C)nc2ccccn12,4023,17,-1,7,13,-5,-31
O=C(NN1C(=O)C2C(C1=O)C1C=CC2C12CC2)c1cccc(Cl)c1 (configuration not stated),4461,5,0,-2,8.9,-12,-19
C/C(=N\NC(=O)c1cccc(S(=O)(=O)N2CCOCC2)c1)c1ccc(OCC(=O)N(C)C)cc1,?,.,.,.,.,-12,-15
Cc1ccc(N(CC(=O)NCC2CCCO2)C(=O)CCC(=O)Nc2nccs2)cc1 (configuration not stated),6293,2,6,-1,1.0,4,-17
Cc1ccc([N+](=O)[O-])c(C(=O)Nc2cccnc2Cl)c1,1995,4,6,10,1.8,0,-23
COc1cc(S(=O)(=O)N2CCOCC2)ccc1NC(=O)COC(=O)c1ccccn1,2451,4,-2,8,9.5,3,-28
CC1SC(=NC(=O)C(C)N2C(=O)c3ccccc3C2=O)NC1=O (configuration not stated),3468,-1,3,-1,0.0,3,-3
COc1cccc(/C=N/Nc2ncnc(Cl)c2N)c1O,2017,.,.,.,.,56*,16
CCOCCCN1C(=O)C(O)=C(C(C)=O)C1c1cccs1 (configuration not stated),15516,-4,1,4,-3.6,3,8
Cc1ccc2c(c1)=C(c1sc(N(C)c3ccc(O)cc3)nc1O)C(=O)N=2,3270,-7,8,-5,7.6,1,-6
CCOC(=O)c1oc2ccccc2c1NC(=O)CCl,3651,-1,16,18,4.9,-6,-18
CCn1c(SCC(=O)C(C)(C)C)nnc1-c1ccccc1OC,4878,9,.,.,2.0,4,-12
CCc1ccc[n+](-c2nc([O-])sc2C=O)c1,3620,6,-5,1,1.5,2,-52
O=C(O)Cc1ccc(NC(=O)Nc2cccc3ccccc23)cc1,6519,-2,9,-2,1.0,-9,-4
COc1ccc(CN(C)CC(=O)NC(=O)NCc2ccccc2)cc1OC,2164,3,1,5,9.4,0,0
CC(C)c1nnc(NC(=O)COC(=O)/C=C/c2ccc([N+](=O)[O-])cc2)s1,5274,-3,5,4,-2.7,2,-7
COC(=O)c1cc(OC)c(OC)cc1N1C(=O)CCCC1=O,2818,5,12,1,0.8,1,8
Cc1ccc(Cn2ccc(NC(=O)c3cc(C4CC4)on3)n2)cc1,4269,2,7,4,6.8,-4,-43
CCC1(C)Cc2nc3sc(C(=O)O)c(N)c3cc2CO1 (configuration not stated),2778,-5,.,.,4.5,-3,-45
O=C1CC(c2ccccc2)CC(O)=C1C=NCc1ccc(Cl)c(Cl)c1 (configuration not stated),3060,-7,-3,-3,-14,6,-16
CCOc1cc(N2CCOCC2)c(OCC)cc1NC(=O)c1ccc(C)cc1,4107,7,7,18,12,5,-28
Cn1cccc1/C=C1/SC(=O)N(CC(=O)N2CCCC2)C1=O,4111,5,11,10,2.9,-4,-11
COc1ccc(C=NNc2nonc2N)c(OC)c1,.,-1,-10,1,0.0,.,.
CCOC(=O)N1CCN(c2cc(=O)n(-c3ccccc3Cl)c(=O)[nH]2)CC1,4210,1,0,4,1.6,-7,-21
CC(Sc1nnc(-c2ccncc2)n1C)C(=O)NCC1CCCO1 (configuration not stated),5602,7,10,-2,4.7,3,-9
Cc1ccc2nc3c(cc(C(=O)NC4CCCC4)c(=N)n3CCCn3ccnc3)c(=O)n2c1,.,11,3,12,1.6,4,.
CC(=O)Nc1cccc(-c2nnc(SCC(=O)n3c4c(c5ccccc53)CCCC4)n2C)c1,10542,-2,5,3,1.1,-2,-21
Cc1c(C(=O)OCC(=O)N(C)C2CCS(=O)(=O)C2)oc2ccc(Br)cc12 (configuration not stated),4739,-4,0,9,0.4,-1,-19
COC(=O)c1c(-c2cccc(C)c2)csc1N,4051,9,.,.,3.4,3,-19
CCn1c2ccccc2c2cc(NC(=O)c3cc(C)on3)ccc21,4612,12,7,15,1.1,3,-7
Cc1ccc(C(=O)Nc2ccc3c(c2)OCCO3)cc1,3557,4,8,5,-1.0,4,31
COc1ccccc1NC(=S)NCCSc1ccc(Cl)cc1,2458,-4,6,6,3.1,10,-6
COc1ccc(Nc2nc(C(C)(C)C)nc3c2nnn3Cc2ccccc2Cl)cc1OC,3128,3,6,-5,4.8,14,0
FC(F)(F)c1ccc(C=NN2CCN(Cc3ccccc3)CC2)cc1,.,30,5,8,6.1,.,.
COC(=O)C1=C(C)N(c2ccc(Cl)c(Cl)c2)C(=O)C1,3654,-9,11,10,2.2,9,-17
CC(C)c1nnc(NC(=O)CSc2ncn[nH]2)s1,2457,4,10,13,1.7,-10,-10
Cc1ccc2cccc(NC(=O)c3ccc(Br)o3)c2n1,4390,-16,0,-1,-4.2,6,14
Cc1ccc(CN(C)C(=O)C2CCC(=O)N(CC3CCCCC3)C2)o1 (configuration not stated),5487,-4,1,14,0.6,0,0
COc1ccccc1Sc1ccccc1C=NNC(N)=O,.,2,6,8,7.1,.,.
CN1CCN(S(=O)(=O)c2cccc(C(=O)Nc3sccc3C#N)c2)CC1,4064,-1,-2,2,1.5,.,-30
CC1CCCN(CCOc2ccc(Br)cc2)C1 (configuration not stated),7455,5,3,2,3.1,7,5
COc1ccc(OC)c(NC(=O)COC(=O)CN(C)S(=O)(=O)c2ccc(C)cc2)c1,7342,10,7,-2,3.5,-7,-21
# Further structures follow.
SMILES,Bead autofluor,ugtP null kill,Mtb hypoxia inh,Mtb hypoxia inh growth,Sa RN4220 lethal,BJeLR viability,PrP 5UTR inh
Cc1cc(-c2ccccc2)n2nc(N)nc2n1,4229,7,-2,-4,9.4,12,-4
O=C(CCC1N=C2c3ccccc3N=C(SCc3ccc(Cl)cc3)N2C1=O)NCc1ccco1 (configuration not stated),2919,12,2,4,-1.1,-4,-3
CC(=NNC(=O)c1nn(C)cc1Br)c1ccncc1,.,3,5,1,3.9,.,.
COc1ccc(N(Cc2cc3ccc(C)cc3[nH]c2=O)C(C)=O)cc1,3589,6,.,.,0.6,3,5
Cc1ccc(-c2nnn(CC(=O)N(Cc3cccs3)C(C(=O)NC3CCCCC3)c3ccco3)n2)o1 (configuration not stated),3220,1,.,.,4.7,8,-7
CC(=O)Oc1ccc(C(=O)Nc2ccccc2C(=O)Nc2cccc(C(=O)O)c2)cc1,4158,4,11,-4,-0.7,-2,-15
S=C(NC1CCCC1)N1CCOCC1,1951,2,6,-2,1.7,-3,0
COc1ccccc1Oc1ccc(N/C=C/C(=O)C(C)(C)C)cc1,2698,.,.,.,.,-11,-18
CC(=O)C1=C(C)NC(=O)NC1c1ccc(Cl)cc1 (configuration not stated),2140,-1,-6,-7,-1.8,-2,-28
O=C(O)c1ccc(-n2[nH]c3c(c2=O)CCCC3)cc1,2626,14,12,14,4.5,-2,-22

# Rewritten as tab-separated lines: part of the list above.
SMILES	Bead autofluor	ugtP null kill	Mtb hypoxia inh	Mtb hypoxia inh growth	Sa RN4220 lethal	BJeLR viability	PrP 5UTR inh
C=CC[n+]1cccc(-c2cc3ccc(C)cc3[nH]2)c1	3594	10	4	5	-2.8	4	-15
Cc1c(CCC(=O)N2CCC(C(=O)NCCCCCC(=O)O)CC2)c(=O)oc2cc3oc4c(c3cc12)CCCC4	5171	4	4	5	3.0	-1	-9
CCn1cc(C(=O)NCCCOC(C)C)c2cc(OC)c(OC)cc2c1=O	2732	4	.	.	2.8	-5	-16
COc1ccccc1C1CC(c2ccccc2)=NN1C(=O)c1ccccc1 (configuration not stated)	3761	-15	-9	5	-2.8	-3	-3
COCc1cc(Sc2ccc(Cl)cc2Cl)nc(-c2ccccc2)n1	4983	67	.	.	-17	0	-25
CC(=NNC(=O)CNC(=O)Cc1ccc(Cl)cc1)c1ccco1	.	15	-6	-13	1.7	.	.
Cc1ccc(S(=O)(=O)NNC(=O)c2ccc3ccccc3n2)cc1	3340	8	2	2	8.4	0	-67
Cc1ccc2nc(SCC(=O)N3CCN(c4ccccc4)CC3)nc(=O)n2c1	6398	5	5	14	1.1	-4	-6
CCN(CC)P(=S)(c1c(C)nc2ccccn12)c1c(C)nc2ccccn12	4023	17	-1	7	13	-5	-31
O=C(NN1C(=O)C2C(C1=O)C1C=CC2C12CC2)c1cccc(Cl)c1 (configuration not stated)	4461	5	0	-2	8.9	-12	-19
C/C(=N\NC(=O)c1cccc(S(=O)(=O)N2CCOCC2)c1)c1ccc(OCC(=O)N(C)C)cc1	?	.	.	.	.	-12	-15
Cc1ccc(N(CC(=O)NCC2CCCO2)C(=O)CCC(=O)Nc2nccs2)cc1 (configuration not stated)	6293	2	6	-1	1.0	4	-17
Cc1ccc([N+](=O)[O-])c(C(=O)Nc2cccnc2Cl)c1	1995	4	6	10	1.8	0	-23
COc1cc(S(=O)(=O)N2CCOCC2)ccc1NC(=O)COC(=O)c1ccccn1	2451	4	-2	8	9.5	3	-28
CC1SC(=NC(=O)C(C)N2C(=O)c3ccccc3C2=O)NC1=O (configuration not stated)	3468	-1	3	-1	0.0	3	-3

# (next part)
SMILES,Bead autofluor,ugtP null kill,Mtb hypoxia inh,Mtb hypoxia inh growth,Sa RN4220 lethal,BJeLR viability,PrP 5UTR inh
N#Cc1ccccc1Cn1c(=O)n(CCCC(=O)NCc2ccc3c(c2)OCO3)c(=O)c2ccccc21,2147,-3,2,3,1.6,19,-14
Cc1cc(C(=O)COc2cccc3cccnc23)c(C)n1C,6456,-3,6,14,2.6,0,-22
CCC(=O)Nc1ccc(-c2nnc(SCC(=O)N3CCCCC3)n2C)cc1,10281,-4,0,-3,2.3,-10,-11
O=C(Nc1ccc2c(c1)OCO2)c1cnn2c1NC(c1ccco1)CC2C(F)(F)F (configuration not stated),?,14,7,0,7.3,-10,-8
Cc1ccc(-c2nnc(OCc3nc4ccccc4n3C)c3ccccc23)cc1,5063,4,9,3,4.1,-2,-21
CCCC1CCc2[nH]nc(C(=O)NN)c2C1 (configuration not stated),4581,13,4,6,22,.,-13
CC(C)CCN1C(=O)c2cccc3c(N)ccc(c23)C1=O,4185,.,.,.,.,2,-25
CCOc1ccc(NC(=O)c2ccc(NC(=O)CSc3nc4ccccc4c(=O)[nH]3)cc2)cc1,3198,9,1,-3,3.0,-9,6
CC(C)OC(=O)CSc1nc(Cc2cccs2)nc2ccccc12,2356,2,3,10,5.5,-1,-5
CCOc1ccc2nc(NC(=O)c3ccc(C)o3)sc2c1,3564,-11,13,7,1.7,24,-76
O=C(N/N=C/c1ccc(-c2cccc([N+](=O)[O-])c2)o1)[C@H]1C[C@@H]1c1ccccc1,2399,.,.,.,.,-7,-14
CC1(C(=O)Nc2nnc(C(C)(C)C)s2)Cc2ccccc2C(=O)O1 (configuration not stated),11347,9,8,10,2.8,1,.
Cc1oc(S(=O)(=O)N2CCCCC2)cc1NC(=O)Nc1ccccc1,5540,6,15,10,2.7,0,-53
Cc1cccc(-n2c(O)c(/C=C3/C(c4ccccc4)=Nc4ccccc43)c(=O)[nH]c2=O)c1,3995,6,5,1,4.5,34,-41
CC1CC(C)(C)Nc2ccc(OC(=O)c3ccco3)cc21 (configuration not stated),2913,-1,11,12,-7.9,-4,-31

# Source: PubChem
